Bioassay records from PubChem BioAssay.
Menin MLL FP FL: displaces fluorescein MLL peptide from human menin. Fluorescence polarization, fluorescein-MLL peptide displacement from menin. FP activity change, % at 61.4 µM. 290,000 tested, under 10 active. AID 1766; inconclusive = falling polarisation curve, or a change in total fluorescence; inactive = total fluorescence flat and polarisation flat or rising; no compound was filed as active; the % refers to the polarisation; negative = inhibition;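 also: % of control where 0% means no effect; inhibitors lower the polarisation; unlabelled MLL peptide was the positive control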
Sfp PPTase inh: Sfp phosphopantetheinyl transferase inhibition; Potency, µM, without a hit: max response, negative = inhibition, hits mostly inhibitors; 3.5% of 310,000 active; Biochemical Sfp PPTase activity, qHTS; active = well fitted inhibition curve with a large enough effect; inconclusive = small, poorly fitted or top-dose-only effect, or another doubt; inactive = no such curve, though single readings can be large or run the other way;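 also: the enzyme is Sfp with the accession as filed and its product quenches rhodamine fluorescence; potency is read from the fitted curve at half-maximal effect; 0% = enzyme reaction without inhibitor and -100% = no enzyme wells; top concentration of the series not given in the record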
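Fluorescence-quenching assay with 15 nM Sfp, 5 uM rhodamine-CoA and 12.5 uM BHQ-2-labelled ybbR peptide in pH 7.6 Hepes/MgCl2 buffer. Enzyme was pre-incubated with compound for 15 min at room temperature. Rate was taken from the 30-min fluorescence change (525/598 nm).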
ClpP mod: qHTS Assay for Activators of ClpP. ATP-dependent Clp protease proteolytic subunit (Bacillus subtilis (strain 168)), P80244. purified B. subtilis ClpP, FRET peptide cleavage, 20 min. Potency, µM (highest dose often 57.5 µM), for the others: at the top dose activity change, negative = active. 1.9% of 340,000 active; active = well fitted falling curve with a large enough effect; inconclusive = small, poorly fitted or top-dose-only effect; inactive = no such curve, though single readings can be large or run the other way; also: potency is read from the fitted curve at half-maximal effect; the source files actives as falling curves though it sought activators and does not explain the sign; nearly all actives have a fitted effect of over 65% in size; many hits overshoot -100%
Target sequence (P80244 whole entry, looked up): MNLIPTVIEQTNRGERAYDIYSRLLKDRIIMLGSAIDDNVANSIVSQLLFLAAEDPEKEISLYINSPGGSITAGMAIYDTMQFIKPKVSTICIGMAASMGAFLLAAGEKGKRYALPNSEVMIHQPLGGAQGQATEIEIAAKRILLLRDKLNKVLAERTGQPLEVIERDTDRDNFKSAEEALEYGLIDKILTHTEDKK
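Buffer: 100 mM Tris/HCl pH8, 100 mM KCl, 0.05% low protease BSA, 2.5% glycerol, 0.01% Tween-20. ClpP 10 microg/mL final; 20 min RT; delta FRET normalized to ADEP and DMSO controls.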
gsp antag: gsp mutant antagonism | gsp-mutant cells, cAMP HTRF, 30 min; control for the full effect not named in the record | Potency, µM (highest dose often 76.9 µM), inactives show at the highest dose activity change, negative = inhibition, usual class: inhibitors | 0.4% of 340,000 active; active = falling curve of any shape with a large fitted effect; inconclusive = falling curve, mostly with a smaller effect; inactive = flat or rising curve; cell line not stated here;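 also: intracellular cAMP measured with PDE inhibitor Ro 20-1724 present during compound exposure; potency is read from the fitted curve at half-maximal effect; % is scaled to controls: 0 for no effect and ±100 for the full control effect; nearly all actives have a fitted effect of over 65% in size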
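HTRF cAMP read-out (cAMP-d2 plus anti-cAMP antibody-K in lysis buffer, 30 min RT). Before lysis, cells are exposed to compounds with […] for 30 min at 37C in DPBS containing Ca/Mg, BSA and Tween 20.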
TRPML1 inh: inhibitors of human TRPML1 channel. AID 624415. 0.02% of 390,000 active. TRPML1-inducible cells, Ca2+ dye fluorescence, FDSS; hits give low values; inhibition of EC80 agonist-evoked calcium signal. Q9GZU1. activity change, negative = inhibition, % (concentration not given with the values); in the data active means activity change below about -50%; inconclusive means about -30% to -50%; inactive means above about -30%;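 also: stimulus is agonist 54-4 at its EC80 concentration; % is scaled to controls: 0 for no effect and ±100 for the full control effect; compound concentration not given in the record; the text of the record puts the active cut at -80%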
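Calcium fluorescence in TRPML1-DL cells induced overnight with Tet: a 110 s read after compound pin addition, then a 110 s antagonist read after challenge with 54-4 at 4 uM final (EC80).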
gsp ag: gsp mutant agonism. gsp mutant cells, cAMP HTRF, 30 min; control for the full effect not named in the record. Potency, µM (doses to about 76.9 µM), for inactives: top-dose activation (cAMP increase), hits mostly activators. 0.13% of 340,000 active; active = well fitted activation curve with a large enough effect; inconclusive = small, poorly fitted or top-dose-only effect, or another doubt; inactive = no such curve, though single readings can be large or run the other way; cell line not stated here;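 also: phosphodiesterase inhibitor Ro 20-1724 added with compounds to block cAMP breakdown; potency is read from the fitted curve at half-maximal effect; nearly all actives have a fitted effect of over 60% in size; about a fifth of the inactives were tested at one dose only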
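Cells stably selected in G418 were plated at 2000/well, grown 16-24 hr, then given compounds in DMSO with the PDE inhibitor […] (300 uM solution added) for 30 min at 37C; cAMP was read by HTRF.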
TRPV1 PAM: potentiators of human vanilloid receptor 1 (TRPV1); TRPV1-expressing cells, Fluo-8 calcium influx, capsaicin EC20 potentiation; host cell line not named in the record; control for the full effect not named in the record; potentiation, % at 8.33 µM; Q8NER1; 0.02% of 320,000 active; active means potentiation above 80%; inconclusive means 30% to 80%; inactive means below 30%; also: 0% is about no effect
Target sequence (Q8NER1 whole entry, looked up): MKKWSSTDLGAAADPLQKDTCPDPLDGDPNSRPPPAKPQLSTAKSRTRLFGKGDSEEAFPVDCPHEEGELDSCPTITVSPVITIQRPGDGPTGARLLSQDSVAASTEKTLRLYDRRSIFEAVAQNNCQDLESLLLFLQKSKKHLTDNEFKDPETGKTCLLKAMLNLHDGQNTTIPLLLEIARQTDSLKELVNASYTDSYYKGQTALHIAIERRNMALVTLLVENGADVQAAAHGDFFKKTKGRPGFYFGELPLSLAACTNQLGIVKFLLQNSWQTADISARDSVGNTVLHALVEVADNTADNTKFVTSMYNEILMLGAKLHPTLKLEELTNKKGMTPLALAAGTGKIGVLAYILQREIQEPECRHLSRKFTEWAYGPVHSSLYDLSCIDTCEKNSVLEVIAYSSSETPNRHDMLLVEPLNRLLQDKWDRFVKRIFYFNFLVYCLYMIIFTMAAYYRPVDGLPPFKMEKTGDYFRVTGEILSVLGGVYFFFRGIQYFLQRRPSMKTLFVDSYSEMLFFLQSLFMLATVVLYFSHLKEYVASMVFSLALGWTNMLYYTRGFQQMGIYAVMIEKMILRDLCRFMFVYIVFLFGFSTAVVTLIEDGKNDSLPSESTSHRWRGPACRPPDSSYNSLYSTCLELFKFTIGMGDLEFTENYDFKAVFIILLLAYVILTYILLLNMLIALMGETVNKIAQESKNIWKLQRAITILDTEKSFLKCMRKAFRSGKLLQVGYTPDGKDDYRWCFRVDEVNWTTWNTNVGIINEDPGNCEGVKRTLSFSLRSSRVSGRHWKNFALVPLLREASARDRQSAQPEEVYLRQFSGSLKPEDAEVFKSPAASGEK
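Cells expressing TRPV1 were dye-loaded with Fluo-8 and read kinetically: 10 s baseline, 3 min after compound (agonist portion), then 2 min after EC20 capsaicin (allosteric enhancer portion). Calcium-bound dye fluorescence at 480/520 nm.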
An asterisk follows results filed as active; ? = inconclusive; · = not tested or not shown; [ ] = remark or other dose. Not a hit list; any-hit rate near 4.9%.

SMILES	Menin MLL FP FL	Sfp PPTase inh	ClpP mod	gsp antag	TRPML1 inh	gsp ag	TRPV1 PAM
CC(=O)c1cc(C)c(OC(=O)c2ccccc2)c(C)c1	·	·	-3.1%	-9%	24	-7%	·
Cc1cc(C)cc(-n2nnc(C(=O)NCc3ccccc3Cl)c2N)c1	12	11%	-2.8%	10%	3	16%	·
COc1ccc(OC)c(-n2c(-c3cc(-c4ccc(F)cc4)n[nH]3)n[nH]c2=S)c1	1.0	?	-15%	3%	-15	6%	8
Cc1cccc(NS(=O)(=O)c2cccc(C(=O)NCC3(N4CCOCC4)CCCCC3)c2)c1	·	·	0.4%	-27%	8	-10%	·
COc1nc(N)nc(NC23CC4CC(CC(C4)C2)C3)n1	1.2	3%	-1.4%	-1%	10	?	-7
COc1ccc2cc(C(=O)Nc3ccc(S(N)(=O)=O)cc3)sc(=O)c2c1OC	-0.8	-11%	·	-10%	-17	24%[15.4 µM]	-2
Cc1nc(/C(N)=N/OC(=O)Cc2ccccc2)no1	0.2	24%	·	2%	-15	0%	2
CC(C)CCC(CCN1CCOCC1)c1ccc2c(c1)OCO2 (configuration not stated)	0.9	79µM*	1.0%	-9%	-8	-12%	-19
Cc1ccc(C)c(C(=O)Nc2c(C(N)=O)oc3ccccc23)c1	0.4	25%	192%	-5%	-8	-49%[inhibitor]	7
COc1ccc(OCCNS(=O)(=O)Cc2ccccc2)cc1	1.5	10%	-0.5%	6%	-11	-28%	-2
Cc1ccc(Cn2cccc2/C=N/NC(=S)Nc2ccc(C)cc2)cc1	0.6	6%	·	4%	28	4%[15.4 µM]	0
O=C(c1c[nH]c2ccc(S(=O)(=O)N3CCC4(CC3)OCCO4)cc2c1=O)N1CCOCC1	4.1	8%	16µM*	21%	-3	6%	0
O=C(CNC(=O)c1ccc2c(c1)OCCO2)N/N=C/c1cccc(Br)c1	-3.4	12%	·	-8%	-18	-1%[15.4 µM]	14
Cc1cc2c(cc1S(=O)(=O)N1CCN(c3ccccc3)CC1)OCC(=O)N2	1.0	4%	-1.0%	7%	-4	6%	5
O=C(c1ccc(Br)cc1)c1sc(N2CCOCC2)nc1-c1ccccc1	-1.8	-2%	-0.1%	0%	40	14%[15.4 µM]	-12
Cc1ccc(-n2ccnc2SCC(=O)N(CC(C)C)C2CCS(=O)(=O)C2)c(C)c1 (configuration not stated)	4.4	0%	-0.5%	?	-7	-46%[inhibitor]	-10
O=C(NCCCNCCCNC(=O)c1ccc(/C=N/O)nc1)c1ccc(/C=N/O)nc1	-0.2	14µM*	-2.3%	-4%	?	1%	-2
COc1ccc(CCNC(=O)COC(=O)C2COc3ccccc3O2)cc1 (configuration not stated)	·	·	0.1%	-4%	4	4%	-5
COc1ccc(S(=O)(=O)N2CCOCC2)cc1C(=O)N1CCCCC1	·	8%	-1.9%	10%	-8	3%	2
Cc1ccc(-c2n[nH]c(=O)c3ccccc23)c(C)c1	-3.7	-1%	-0.2%	-9%	4	-10%[15.4 µM]	24
O=S(=O)(Nc1cccnc1)c1ccc(Cl)c(C(F)(F)F)c1	-9.4	11%	1.0%	?	-4	-17%	20
O=C(Nc1ccc(OC(F)(F)F)cc1)c1cnccn1	-1.4	7%	0.8%	10%	-7	1%[15.4 µM]	-4
Cc1ccc(CNC(=O)CCCNS(=O)(=O)c2cccc3nonc23)cc1	4.1	6%	-1.2%	-15%	2	-35%[inhibitor]	7
Cc1ccc(N=C2NC(=O)/C(=C\c3ccc(C)s3)S2)cc1	19	7%	·	0%	5	-8%	9
Cc1c(C(=O)O)sc2nc(SCC(=O)Nc3ccc(S(=O)(=O)NC(C)(C)C)cc3)[nH]c(=O)c12	5.7	?	·	0%	-18	3%[15.4 µM]	3
Nc1nc(-c2ccccc2)c(C(=O)Nc2ccccc2)s1	0.7	18%	1.2%	-2%	30	?	?
COC(=O)c1cn(CC(=O)NC2CCCCCC2)c2ccccc12	-1.7	13%	-1.7%	0%	0	6%	13
CC(C)(C)c1ccc(OCc2ccc(C(=O)N/N=C3\CC4CC=CC34)cc2)cc1 (configuration not stated)	9.8	35%[activator]	-6.2%	12%	11	-4%[15.4 µM]	-13
Cc1nn(C(C)C(=O)NCCc2ccccc2)c(=O)c2cc3occc3n12 (configuration not stated)	·	4%	-6.7%	2%	-5	-2%	5
Cc1ccc(-n2[nH]c(C)c(C=Nc3ccc4[nH]c(=O)[nH]c4c3)c2=O)cc1	-1.2	-11%	-1.3%	-2%	9	?	9
NC(=O)CN1C(=O)C(=O)N(Cc2cccc(Cl)c2)C1=O	1.6	2%	-0.2%	7%	·	?	20
Cn1cnc([N+](=O)[O-])c1N=C(N)N	0.4	15%	·	7%	6	-12%[15.4 µM]	-16
CCOc1ccc(NC2CCCCC2NS(=O)(=O)c2ccccc2)cc1 (configuration not stated)	-1.6	8%	-0.3%	-1%	11	-15%	-2
CCc1nc(Nc2ccc(NC(C)=O)cc2)c2oc3ccccc3c2n1	0.1	3%	36%	6%	6	?	3
CC(C)CCNC1=CC(=O)CC(c2ccccc2)C1 (configuration not stated)	1.1	-15%	-1.6%	4%	8	?	-7
Cc1cccn2c(=O)c(/C=N/O)c(N3CCCC3)nc12	-4.1	19%	-0.2%	9%	2	?	7
Cc1cc(C(c2ccc(O)cc2)c2cc(C)c(O)cc2C)c(C)cc1O	-0.3	7%	·	7%	11	4%	1
Cc1ccc2c(c1)sc(-c1ccc(N(C)C)cc1)[n+]2C	14	-11%	?	-27%	-5	5%	1
Cc1nn(C)cc1C(C(=O)NC1CCCCC1)N(C(=O)c1cnccn1)c1ccc(Oc2ccccc2)cc1 (configuration not stated)	1.9	2%	1.2%	1%	-10	5%	-16
C=CCNC(=O)c1cccc(C(F)(F)F)c1	4.9	16%	1.1%	9%	-10	11%	-5

Three entries drawn at random from the list so far:
SMILES	Menin MLL FP FL	Sfp PPTase inh	ClpP mod	gsp antag	TRPML1 inh	gsp ag	TRPV1 PAM
O=S(=O)(Nc1cccnc1)c1ccc(Cl)c(C(F)(F)F)c1	-9.4	11%	1.0%	?	-4	-17%	20
Cc1ccc(-n2[nH]c(C)c(C=Nc3ccc4[nH]c(=O)[nH]c4c3)c2=O)cc1	-1.2	-11%	-1.3%	-2%	9	?	9
Cc1ccc(CNC(=O)CCCNS(=O)(=O)c2cccc3nonc23)cc1	4.1	6%	-1.2%	-15%	2	-35%[inhibitor]	7

Next entries follow:
SMILES	Menin MLL FP FL	Sfp PPTase inh	ClpP mod	gsp antag	TRPML1 inh	gsp ag	TRPV1 PAM
Cc1ccc(-c2nnn(CC(=O)N3CCC(C)CC3)n2)o1	1.3	22%	0.5%	2%	-9	10%	15
COc1cc2c(cc1OC)C(c1cccs1)CC(=O)N2 (configuration not stated)	-0.5	9%	2.7%	-1%	4	-3%	0
C=CCNc1nc(N)c([N+](=O)[O-])c(NC2CCCCC2)n1	-4.9	3%	-2.3%	5%	36	-48%[inhibitor]	4
CCCc1cc(=O)[nH]c(SCC(=O)c2c(N)n(C)c(=O)n(C)c2=O)n1	0.1	-8%	-21%	6%	-5	?	25
Cn1c(O)c(N=NC(=O)CNC(=O)/C=C/c2ccccc2)c2ccccc21	2.8	14%	1.4%	-1%	-15	-1%	10
Cc1ncoc1C(=O)Nc1cccc(Cl)c1C	4.2	28%	1.3%	17%	6	-31%	-7
Cc1nn(C)c(Oc2ccccc2)c1[N+](=O)[O-]	6.5	4%	0.1%	1%	2	-6%	1
Cc1cc(O)c(C(=O)/C=C/c2cccc([N+](=O)[O-])c2)c(=O)o1	10.0	6%	·	-5%	15	-1%	4
Cc1ccc(CN2CCN(/N=C/c3ccc(C(=O)O)cc3)CC2)c(C)c1	2.5	14%	·	-14%	-2	5%	-2
C/C(N)=C(/C#N)C(=O)COC(=O)C1CCN(C(=O)c2ccc(Cl)cc2)CC1	-0.9	14%	·	-30%	-12	13%[15.4 µM]	-12
COc1ccc(-c2cc(C(F)(F)F)nc(SCC(=O)Nc3ccc4c(c3)OCO4)n2)cc1	4.0	-16%	-3.0%	-2%	-15	?	11
COC(=O)C1CCN(C(=O)COC(=O)c2ccc3[nH]c4c(c3c2)CCCC4)CC1	·	·	3.9%	-14%	23	-30%	4
CCOC(=O)c1sc(N/N=C/c2cccc(C)c2)nc1C	6.0	-14%	?	-13%	8	-9%	8
O=C1NC(c2ccccc2)N=C2Oc3ccccc3C=C12 (configuration not stated)	·	·	11µM*	25%	-17	-12%	·
CCOc1ccc(NC(=O)c2ccccn2)cc1	1.4	10%	-0.5%	-1%	-5	?	-25
CC(=O)Nc1nonc1-n1nnc(C(=O)NCc2ccccc2)c1C	-0.4	-6%	-5.1%	14%	-11	-1%	17
COc1ccc(S(=O)(=O)N2CCOC2CNC(=O)C(=O)NCc2ccccn2)cc1OC (configuration not stated)	·	·	-1.5%	·	9	-1%	·
Clc1ccc(Cn2nnc(-c3ccccc3)n2)cc1	2.6	4%	0.2%	1%	-20	-1%	2
Nn1c(COc2cccc(Cl)c2)nc2ccccc2c1=O	-4.9	9%	-2.5%	13%	12	18%	3
CN(C)CCCNCCCNC(=O)c1ccncc1	-12	11%	-1.3%	-1%	-1	-27%	?
CCc1nc(C)cn1S(=O)(=O)c1cc(F)ccc1OC	-1.2	4%	·	8%	-14	?	7
Fc1ccc(CSc2nnc(-c3cccnc3)n2Cc2ccco2)cc1	3.2	40µM*	1.1%	-7%	5	24%	6
COCC(=O)N1CCCC(C(=O)c2ccc(-c3ccccc3)cc2)C1 (configuration not stated)	4.1	15%	0.1%	-3%	14	-1%	-11
CCCCN1CC(=O)N2[C@H](c3ccc(OC)cc3)[C@@H]3C(=O)N(CC)C(=O)[C@@H]3[C@]2(C)C1=O	1.0	11%	-0.5%	9%	-26	-30%[inhibitor]	-12
COCCCN(C(=O)CCOc1ccc(C(C)(C)C)cc1)c1c(N)n(Cc2ccccc2)c(=O)[nH]c1=O	·	·	·	0%	6	17%[15.4 µM]	5
COc1ccccc1N1CCN(C2CCCN(C(=O)c3ccoc3C)C2)CC1 (configuration not stated)	-5.5	4%	-4.5%	-4%	8	-36%	-28
CCCCCc1ccc(OCCCC[n+]2ccc(C)cc2)c(CCCCC)c1	-12	50µM*	-1.7%	6%	1	7%	-25
